# GLA inh pH 4.5: qHTS Assay for Inhibitors of Human alpha-Galactosidase at pH 4.5; Alpha-galactosidase A (Homo sapiens), P06280; 230,000 tested, under 10 active; purified enzyme, 4-MU-alpha-Gal fluorescence, pH 4.5; activity change, negative = inhibition, % at 105 µM; inconclusive = small, poorly fitted or top-dose-only inhibition, or a rising curve; inactive = flat fitted curve, though single readings scatter; no compound was filed as active;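 further: 0% = full activity with enzyme and -100% = basal without enzyme; dose as in the result columns while the protocol names 77 µM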
# Rango release inh: qHTS Assay for Inhibitors of RanGTP induced Rango (Ran-regulated importin-beta cargo) - Importin beta complex dissociation; Biochemical FRET Rango-importin beta, RanGTP-induced dissociation; Snurportin-1 (Homo sapiens) + GTP-binding nuclear protein Ran (Homo sapiens) + Importin …; AID 540253, 2011; hit rate 0.071% among 340,000; Potency, µM (titrated, usually from 46.1 µM), inactives show at the highest dose activity change, negative = inhibition; active means falling FRET ratio curve, often poorly fitted, with flat reads before Ran was added; inconclusive means other falling curves, or compound fluorescence or quenching; inactive means flat or rising ratio curve;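 further: potency means the concentration at half of the fitted maximal effect; % of control where 0% means no effect; nearly all actives have a fitted effect of over 45% in size; -100% = wells without RanGTP and RCC1; the record marks most hits as doubtful in a second field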
#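 Two FRET readings bracket the reaction: one 5 min after compound meets Rango–importin beta, another 45 min after RanGTP-RCC1 (0.6 uM Ran, 0.2 uM RCC1, 2 mM GTP) is added. Only the second defines inhibition.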
# miR-21 FLuc: qHTS Assay for Modulators of miRNAs and/orActivators of miR-21. HeLa miR-21 FLuc reporter, luciferase, 48 h. Potency, µM (series often up to 38.3 µM), for the others: at the top dose reporter change, positive = more light. 340,000 tested, under 10 active. AID 2288, 2010; active = well fitted rising curve with a large enough effect; inconclusive = small, poorly fitted or top-dose-only effect; inactive = no such curve, though single readings can be large or run the other way;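 further: % of control where 0% means no effect; miR-21 action dims this reporter so a rising signal means less miR-21 action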
#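 Using DMEM plus 10% FBS, HeLa miR-21-FLuc cells are incubated with test compounds (final up to about 40uM) for 48 hours; firefly luciferase signal is then imaged following reagent-mediated lysis.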
# Rango complex inh: qHTS Assay for Inhibitors of Rango (Ran-regulated importin-beta cargo) - Importin beta complex formation; Rango CFP/YFP FRET sensor + importin beta, 45 min; Potency, µM (series often up to 92.2 µM), inactives show at the highest dose inhibition of complex formation; hit rate 0.031% among 340,000; active = rising FRET ratio curve, often small or poorly fitted; inconclusive = mostly compound fluorescence or quenching in the first reads; inactive = flat curves in all reads;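 further: potency means the concentration at half of the fitted maximal effect; 0% = DMSO wells and 100% = buffer wells lacking importin beta; nearly all actives have a fitted effect of over 15% in size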
# Target sequence (Q14974 whole entry, looked up): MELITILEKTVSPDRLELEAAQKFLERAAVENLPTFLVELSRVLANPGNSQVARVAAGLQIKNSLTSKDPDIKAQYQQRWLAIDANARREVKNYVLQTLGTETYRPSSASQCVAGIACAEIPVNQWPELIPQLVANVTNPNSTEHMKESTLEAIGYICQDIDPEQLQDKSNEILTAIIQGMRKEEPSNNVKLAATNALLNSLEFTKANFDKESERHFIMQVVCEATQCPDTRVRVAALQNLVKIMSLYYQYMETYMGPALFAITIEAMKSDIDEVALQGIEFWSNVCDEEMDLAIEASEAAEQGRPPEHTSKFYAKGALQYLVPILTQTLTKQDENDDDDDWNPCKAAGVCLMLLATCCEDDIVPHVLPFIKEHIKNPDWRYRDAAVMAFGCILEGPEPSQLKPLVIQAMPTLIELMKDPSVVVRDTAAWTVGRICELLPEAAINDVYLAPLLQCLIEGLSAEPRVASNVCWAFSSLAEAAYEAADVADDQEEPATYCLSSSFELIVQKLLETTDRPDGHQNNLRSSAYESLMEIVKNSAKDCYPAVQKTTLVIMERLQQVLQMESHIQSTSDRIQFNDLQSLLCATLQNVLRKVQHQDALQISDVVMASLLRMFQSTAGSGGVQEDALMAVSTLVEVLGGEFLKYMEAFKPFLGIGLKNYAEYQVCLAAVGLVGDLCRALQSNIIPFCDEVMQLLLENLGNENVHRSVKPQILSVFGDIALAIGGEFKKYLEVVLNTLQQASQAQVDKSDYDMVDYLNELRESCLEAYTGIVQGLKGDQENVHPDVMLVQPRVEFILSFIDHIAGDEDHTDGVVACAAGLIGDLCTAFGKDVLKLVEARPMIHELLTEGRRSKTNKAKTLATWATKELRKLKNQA
#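 FRET biosensor (snurportin 1 IBB flanked by EYFP and cerulean), 50 nM, with compound 5 min, then 0.125 microM importin beta in PBS, 1 mM DTT, 0.02% Tween-20, 0.1% BSA. CFP/YFP ratio read after 45 min at room temperature; pre-read flags interference.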
# * marks the source's active call; other numbers are inactive results; ? = inconclusive; nt = not tested or not shown; [ ] = another dose, or the depositor's remark.
SMILES,GLA inh pH 4.5,Rango release inh,miR-21 FLuc,Rango complex inh
CCOC(=O)N1CCC(NC(=O)c2ccc3nc4ccccc4c(=O)n3c2)CC1,8,nt,1%,nt
Cc1ccc(S(=O)(=O)N(C)C)cc1NC(=O)c1cc(=O)[nH]c2ccccc12,-1,2%,5%,4.6%
NC(=O)c1ccc(NC(=O)COC(=O)CCC(=O)c2ccc(Cl)cc2)cc1,-6,-16%,5%,-0.3%
COc1ccc(C(=O)C(C)C(C)=O)c(OCc2ccccc2)c1OC (centres undefined),nt,?,nt,1.6%
Cc1ccc2sc(C)cc(=O)c2c1,nt,1%,nt,2.8%
CC(Sc1nn(-c2ccc(Cl)cc2)c(=S)s1)C(=O)NCC1CCCO1 (centres undefined),nt,-10%,nt,-0.4%
O=C(Nc1ccc(Br)cn1)C1CCCN1S(=O)(=O)c1ccccc1 (centres undefined),8,3%,8%,-0.9%
O=C(COC(=O)c1ccc([N+](=O)[O-])o1)NC12CC3CC(CC(C3)C1)C2,nt,0%,nt,-0.6%
O=C(N/N=C/c1ccco1)c1cc(-c2ccc3ccccc3c2)n[nH]1,0,-17%,-29%,-1.4%
CC(=O)c1ccc(N2CCN(C(=O)CCS(=O)(=O)c3ccc4c(c3)CCN4C(C)=O)CC2)cc1,nt,-6%,-2%,3.5%
CC1=C(C(=O)OC(C)C)C(c2cccc(F)c2)N2C(=O)C(C)SC2=N1 (centres undefined),-3,-4%,-1%,-1.3%
Cc1ccc(OCCn2c(=S)[nH]c3ccccc32)c(C(C)C)c1,nt,3%,21%,-1.6%
Cc1cc[n+](-c2nc3ccccc3nc2[N-]S(=O)(=O)c2cccs2)cc1C,-3,7%,2%,?
CCOC(=O)C1CCCN(C(=O)c2ccc(OC(C)=O)cc2)C1 (centres undefined),8,-7%,-2%,-2.8%
C=CCOc1ccccc1CN1CCC(n2nccc2NC(=O)C2CCOC2)CC1 (centres undefined),nt,-4%,-4%,-0.1%
COc1ccc(C(=O)N2CCN(C(=O)Cc3ccccc3)CC2)cc1,-9[21.1 µM],7%,-1%,-5.2%
Cc1ccc(NC(=S)c2ccc3ccccc3n2)c(C)c1,nt,-3%,-31%,-2.0%
CC(=O)Nc1ccc(OCCOc2ccccc2C(C)=O)cc1,nt,9%,-4%,2.5%
CCOC(=O)N1CCN(C(=O)c2ccc(NC(=O)CC)cc2)CC1,-4,6%,5%,0.5%
O=C(Nc1ccccc1C(=O)NCC1CCCO1)c1ccco1 (centres undefined),7,12%,2%,-1.0%

# Ordered by number of heavy atoms (ascending): 4 of the compounds above.
SMILES,GLA inh pH 4.5,Rango release inh,miR-21 FLuc,Rango complex inh
Cc1ccc(NC(=S)c2ccc3ccccc3n2)c(C)c1,nt,-3%,-31%,-2.0%
CCOC(=O)C1CCCN(C(=O)c2ccc(OC(C)=O)cc2)C1 (centres undefined),8,-7%,-2%,-2.8%
CCOC(=O)N1CCN(C(=O)c2ccc(NC(=O)CC)cc2)CC1,-4,6%,5%,0.5%
CC1=C(C(=O)OC(C)C)C(c2cccc(F)c2)N2C(=O)C(C)SC2=N1 (centres undefined),-3,-4%,-1%,-1.3%

# Results in GLA inh pH 4.5 and Rango complex inh, for two of the compounds above:
SMILES,GLA inh pH 4.5,Rango complex inh
CCOC(=O)N1CCN(C(=O)c2ccc(NC(=O)CC)cc2)CC1,-4,0.5%
O=C(Nc1ccccc1C(=O)NCC1CCCO1)c1ccco1 (centres undefined),7,-1.0%

# (next part)
SMILES,GLA inh pH 4.5,Rango release inh,miR-21 FLuc,Rango complex inh
Nc1nc(Cl)nc(N(c2ccccc2)c2ccccc2)n1,-2,-8%,1%,-4.3%
Cc1ccc(NS(=O)(=O)c2cccc3nsnc23)cc1C,nt,-4%,-4%,1.1%
CCOc1c(Cl)cc(Cl)cc1CNCCNCCO,6,-16%,-3%,0.4%
COc1ccc(NC(=O)COC(=O)c2cc(C)oc2C)c([N+](=O)[O-])c1,nt,4%,nt,1.2%
C/C(=N\Nc1ccccn1)c1ccc(N2CCOCC2)cc1,2,-10%,-41%,5.3%
O=C(CNS(=O)(=O)c1c(Cl)cccc1Cl)OCc1csc(-c2ccccc2)n1,1,9%,-31%,-0.1%
Cc1cc(C)c(S(=O)(=O)NCCc2ccncc2)c(C)c1,nt,15%,-10%,-0.2%
CC(=O)Nc1ccc(S(=O)(=O)N(C)CC(=O)OCC(=O)Nc2cc(C)on2)cc1,nt,12%,nt,-0.5%
CC(C)(C)OC(=O)N[C@H](C(=O)OC(C)(C)C)c1ccccc1,nt,-8%,nt,-0.4%
Cn1cc(S(=O)(=O)N2CCc3ccccc3C2)c(=O)n(C)c1=O,7,3%,-1%,0.3%
CCCCOc1ccccc1NC(=O)c1scc2c1OCCO2,-11,2%,11%,0.0%
O=C1NCCCC1C(=O)Nc1cccc(C(F)(F)F)c1 (centres undefined),-3,33%,-7%,-1.9%
O=C(Nc1nc(-c2ccccc2Cl)cs1)c1cccnc1,1,-5%,0%,-1.0%
CN(CC(=O)Nc1ccccc1Cl)C(=O)COC(=O)c1cccs1,nt,2%,nt,1.2%
COCCCNC(=O)CCCCCNS(=O)(=O)c1ccc(Br)cc1,8,-4%,0%,-1.9%
CCN(CC)S(=O)(=O)c1cc(C(=O)Nc2nncs2)c(Cl)cc1Cl,-7,-2%,-3%,0.4%
Cc1ccc(CN2C(=O)c3ccccc3Sc3ccc(C(=O)NCCN4CCOCC4)cc32)cc1,nt,-11%,18%,10%
CC(C(=O)N1CCOCC1)N1C(=O)C2C3C=CC(C4CC34)C2C1=O (centres undefined),10,-13%,-1%,-1.1%
O=C(NNC(=S)Nc1ccc(Br)cc1Cl)c1ccncc1,-10,19%,-31%,-4.6%
COC(=O)C1=CN(C)C=C(C(=O)OC)C1c1ccc(O)c(OC)c1,-5,-16%,0%,?
Cc1ccc(/C=N/NC(=O)Cc2cccn2C)s1,5,?,-35%,?
CC1=CC(=C(C#N)C#N)C=C(C)N1Cc1ccc(Cl)cc1,5,1%,1%,-0.9%
O=C(COc1ccc2c(c1)oc(=O)c1ccccc12)NC(Cc1ccc(Cl)cc1)C(=O)O (centres undefined),nt,2%,1%,0.1%
COc1ccc2c(c1)OC[C@H]1[C@H]2N2C(=O)c3cc(OC)ccc3NC(=O)[C@@]2(C)[C@H]1c1ccccc1,nt,-18%,nt,-3.0%
O=C(O)c1ccc(NS(=O)(=O)c2ccc(C(=O)Nc3ccccc3)cc2)cc1,nt,21%,-3%,-3.4%
CCOc1ccc(OCCC(=O)NNC(=O)c2ccncc2)cc1,nt,2%,nt,1.2%
COc1ccc(NC(=O)Nc2cccs2)cc1Cl,-1,-15%,-40%,-3.4%
Cc1cc(N2C(=O)CC(Cc3ccc(Cl)cc3)C2=O)no1 (centres undefined),-2,1%,-3%,-0.5%
NC(=O)c1ccc(/C=N/O)nc1,2,9%,0%,1.0%
O=C(C(=O)N1CCN(c2ccccc2)CC1)c1cn(CC(=O)N2CCCCCC2)c2ccccc12,nt,-11%,1%,-4.2%
Cc1ccc(/C=C(\CCC(=O)O)c2nc3ccccc3s2)cc1[N+](=O)[O-],4,6%,-9%,?
C=CCn1cc(C(=O)c2cc(Br)ccc2O)cc(C#N)c1=O,4,-19%,7%,?
O=C(NCCCn1ccnc1)/C(=C\c1ccco1)NC(=O)c1ccco1,1[21.1 µM],34%,-3%,-0.8%
C[C@H]1CN([C@@H](C)CO)C(=O)Cc2cc(NS(C)(=O)=O)ccc2O[C@@H]1CN(C)Cc1ccc(Cl)c(Cl)c1,nt,4%,nt,-0.3%
COc1ccc(C2(O)CCN(C(=O)c3c(F)cccc3F)CC2)cc1,6,3%,-5%,2.8%
CCCCN(C(C)=O)c1ccc2c(c1)C1CC2CCN1C(=O)OCc1ccccc1 (centres undefined),nt,-15%,nt,-3.8%
COc1ccc(NC(=O)c2ccc(C)cc2)cc1,nt,-3%,-19%,-0.1%
O=C(COC(=O)CCC(=O)c1cccs1)Nc1cccc(F)c1,nt,-2%,nt,-0.1%
Cc1ccc(S(=O)(=O)Nc2cc3c(cc2N2CCOCC2)n(C)c(=O)c(=O)n3C)cc1,nt,-12%,-2%,1.0%
O=C(COc1nnnc2ccccc12)N1CCCc2ccccc21,-3,-3%,-9%,-2.3%
Cc1ccc(S(=O)(=O)NCCCCC(NC(=O)OC(C)(C)C)C(=O)O)cc1 (centres undefined) (tested in a mixture with another compound),-1,0%,-7%,-0.3%
CC(CNC(=O)c1ccc2c(c1)OCO2)c1ccc([N+](=O)[O-])cc1 (centres undefined),-9,3%,1%,-0.7%
COc1cc(NC(=O)c2cccc(F)c2)cc(OC)c1OC,3,25%,6%,?
[O-][n+]1c2c(nc3c1-c1ccccc1C3O)CCCC2 (centres undefined),2,nt,-17%,nt
CCOC(=O)N1N=C(C)CC1(O)c1ccccc1 (centres undefined),5,1%,-6%,0.5%
CCn1c(=O)n(CC)c2cc(S(=O)(=O)NCCOc3ccccc3)c(C)cc21,-1,-15%,0%,0.4%
COc1ccccc1NS(=O)(=O)c1cccc(C(=O)NCC(c2ccc(F)cc2)N2CCOCC2)c1 (centres undefined),nt,18%,nt,-0.1%
CCOC(=O)N1CCN(CCC(=O)Nc2ccc(OC)cc2)CC1,-6,11%,3%,-1.2%
CCc1cccc(NC(=O)[C@@H]2CCCN2C2=NS(=O)(=O)c3ccccc32)c1,nt,4%,nt,-4.0%
O=C1C2C3CCC(O3)C2C(=O)N1c1cc(OCC(F)F)cc([N+](=O)[O-])c1 (centres undefined),nt,2%,nt,-0.7%
Cc1ccc(N2C(=O)C(CC(=O)Nc3cccc(F)c3)N(CCc3ccncc3)C2=O)cc1 (centres undefined),-10,-3%,0%,2.6%
COc1cc(C(=O)NCC(=O)N/N=C/c2c(C)[nH]c3ccccc23)cc(OC)c1OC,-1,24%,9%,-3.2%
COc1ccc(CC(=O)NNC(=O)c2ccccc2)cc1OC,nt,21%,nt,?
CCOC(=O)C1=C(CC)Nc2ccccc2N=C1NC(=O)CCN1C(=O)C2CCCCC2C1=O (centres undefined),4,-17%,0%,0.7%
Cc1ccc([N+](=O)[O-])cc1S(=O)(=O)N1CCCC1,2,12%,-32%,0.4%
CCCCn1c(N)c(N(CC)C(=O)c2ccccc2C)c(=O)[nH]c1=O,nt,8%,-2%,?
COc1ccc(CCNCC(O)COc2cccc(Br)c2)cc1OC (centres undefined),-8,-2%,-16%,-0.1%
CN1CC[C@@H]2C(=O)N3CCc4ccc(Br)cc4[C@@H]3C[C@@H]21,nt,-6%,nt,-1.8%
Cc1cc(-c2nnc(CCC(=O)N3CCN(Cc4cccc(F)c4)CC3)o2)c(C)o1,-1,14%,-13%,-3.0%
CCOC(=O)c1ccc(Oc2cc(C)nc(Cl)n2)cc1,-2,-6%,2%,-0.7%
# New compounds follow
SMILES,GLA inh pH 4.5,Rango release inh,miR-21 FLuc,Rango complex inh
O=[N+]([O-])c1cc(-c2cnc3ccccc3n2)ccc1Cl,0,0%,-13%,1.0%
COc1ccc(N(CC(=O)NCCc2ccccc2)C(=O)CCC(=O)Nc2ccccn2)cc1,nt,4%,-4%,0.6%
CC(=O)c1c(C)[nH]c(C(=O)COc2cc(C)ccc2C(C)C)c1C,6,-3%,?,-0.7%
COC(=O)c1ccccc1NC(=O)CSc1nccc(C)n1,2,28%,0%,2.6%
Cc1ccc(S(=O)(=O)N2CCN(C(=O)COC(=O)/C=C/c3ccc([N+](=O)[O-])cc3)CC2)c(C)c1,nt,20%,nt,2.3%
c1ccc(CNc2nc(-c3cccnc3)cs2)cc1,12,6%,-33%,5.6%
COc1ccc(CCC(=O)OCC(=O)Nc2ccccc2OC(F)F)cc1OC,2,-3%,-2%,0.8%
COc1cccc(CN2C(=NC(=O)CCC3CCCC3)SC3CS(=O)(=O)CC32)c1 (centres undefined),nt,6%,-3%,-1.1%
Cc1cc2nc(/C(C#N)=C/c3ccncc3)[nH]c2cc1C,1,?,-18%,?
COCCN(C(=O)CNC(=O)c1ccco1)C(C(=O)NC1CCCCC1)c1cccnc1 (centres undefined),nt,-9%,2%,2.9%

# Not all compounds are listed (hit frequency here may not be typical).
